Menin MLL FP FL: inhibitors of human menin-MLL interaction, wild-type MLL peptide; Fluorescence polarization, fluorescein-MLL peptide displacement from menin; FP activity change, % at 61.4 µM; 290,000 tested, under 10 active; inconclusive = falling polarisation curve, or a change in total fluorescence; inactive = total fluorescence flat and polarisation flat or rising; no compound was filed as active; the % refers to the polarisation; negative = inhibition;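 note: % of control where 0% means no effect; inhibitors lower the polarisation; unlabelled MLL peptide was the positive control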
Sfp PPTase inh: inhibitors of Bacillus subtilis Sfp phosphopantetheinyl transferase; hit rate 3.5% among 310,000; AID 1490; Q9F4F7; Potency, µM, without a hit: max response, negative = inhibition, usual class: inhibitors; Biochemical Sfp PPTase activity, qHTS; active = well fitted inhibition curve with a large enough effect; inconclusive = small, poorly fitted or top-dose-only effect, or another doubt; inactive = no such curve, though single readings can be large or run the other way;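 note: the enzyme is Sfp with the accession as filed and its product quenches rhodamine fluorescence; potency is the fitted concentration of half-maximal effect; 0% = enzyme reaction without inhibitor and -100% = no enzyme wells; top concentration of the series not given in the record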
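Fluorescence-quenching assay with 15 nM Sfp, 5 uM rhodamine-CoA and 12.5 uM BHQ-2-labelled ybbR peptide in pH 7.6 Hepes/MgCl2 buffer. Enzyme was pre-incubated with compound for 15 min at room temperature. Rate was taken from the 30-min fluorescence change (525/598 nm).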
TRPV1 PAM: enhances activation of the human vanilloid receptor TRPV1; potentiation, % at 8.33 µM; TRPV1-expressing cells, Fluo-8 calcium influx, capsaicin EC20 potentiation; host cell line not named in the record; control for the full effect not named in the record; hit rate 0.02% among 320,000; active means potentiation above 80%; inconclusive means 30% to 80%; inactive means below 30%; note: 0% is about no effect
Target sequence (Q8NER1 whole entry, looked up): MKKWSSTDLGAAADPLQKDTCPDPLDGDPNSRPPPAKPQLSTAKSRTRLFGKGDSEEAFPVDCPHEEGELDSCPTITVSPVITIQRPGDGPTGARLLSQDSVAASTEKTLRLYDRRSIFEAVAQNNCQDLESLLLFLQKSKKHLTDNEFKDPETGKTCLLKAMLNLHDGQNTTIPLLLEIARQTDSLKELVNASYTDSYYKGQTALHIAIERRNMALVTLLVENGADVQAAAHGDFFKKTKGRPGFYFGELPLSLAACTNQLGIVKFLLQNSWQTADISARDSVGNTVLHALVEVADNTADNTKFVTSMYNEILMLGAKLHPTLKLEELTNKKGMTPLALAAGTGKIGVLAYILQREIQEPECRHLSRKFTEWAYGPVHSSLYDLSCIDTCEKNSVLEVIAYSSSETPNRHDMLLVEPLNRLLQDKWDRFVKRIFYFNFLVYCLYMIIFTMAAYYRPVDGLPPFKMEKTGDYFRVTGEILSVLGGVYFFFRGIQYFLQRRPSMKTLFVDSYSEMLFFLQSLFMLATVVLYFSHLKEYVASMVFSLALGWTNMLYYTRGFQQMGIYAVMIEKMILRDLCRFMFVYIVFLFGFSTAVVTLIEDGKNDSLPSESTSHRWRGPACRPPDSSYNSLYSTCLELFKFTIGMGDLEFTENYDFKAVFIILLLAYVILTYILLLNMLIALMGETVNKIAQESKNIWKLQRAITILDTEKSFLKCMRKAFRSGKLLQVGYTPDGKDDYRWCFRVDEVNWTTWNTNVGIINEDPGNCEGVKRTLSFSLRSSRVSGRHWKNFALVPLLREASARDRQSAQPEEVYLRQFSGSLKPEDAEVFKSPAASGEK
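TRPV1-expressing cells were cultured overnight at 35.5C and loaded with Fluo-8 calcium dye for 40 to 90 min at room temperature. After a 10 s baseline, compound was added and calcium influx was read kinetically for 3 min (ex 480/em 520 nm).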
ClpP mod: qHTS Assay for Activators of ClpP; hit rate 1.9% among 340,000; Potency, µM (highest dose often 57.5 µM), inactives show top-dose activity change, negative = active; AID 651965, 2013; purified B. subtilis ClpP, FRET peptide cleavage, 20 min; active = well fitted falling curve with a large enough effect; inconclusive = small, poorly fitted or top-dose-only effect; inactive = no such curve, though single readings can be large or run the other way; note: potency is the fitted concentration of half-maximal effect; the source files actives as falling curves though it sought activators and does not explain the sign; nearly all actives have a fitted effect of over 65% in size; many hits overshoot -100%
Target sequence (P80244 whole entry, looked up): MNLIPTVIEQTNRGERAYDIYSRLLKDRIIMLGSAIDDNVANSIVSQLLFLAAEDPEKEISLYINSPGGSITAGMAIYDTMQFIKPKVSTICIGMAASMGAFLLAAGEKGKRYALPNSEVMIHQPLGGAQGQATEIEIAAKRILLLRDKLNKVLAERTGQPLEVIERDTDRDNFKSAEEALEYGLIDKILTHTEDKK
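FRET quenching reversal measured ClpP activation: 10 microg/mL B. subtilis ClpP at pH 8 with the FRET-FV decapeptide, read at 430 nm after 320 nm excitation. The 20-min minus 0-min signal was scaled between DMSO/no-enzyme wells and ADEP (5.8 microM final).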
gsp ag: activates gsp, the McCune-Albright syndrome mutation; gsp mutant cells, cAMP HTRF, 30 min; control for the full effect not named in the record; Potency, µM (titrated, usually from 76.9 µM), for the others: at the top dose activation (cAMP increase), actives largely listed as activators; hit rate 0.13% among 340,000; AID 624287; active = well fitted activation curve with a large enough effect; inconclusive = small, poorly fitted or top-dose-only effect, or another doubt; inactive = no such curve, though single readings can be large or run the other way; cell line not stated here;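 note: phosphodiesterase inhibitor Ro 20-1724 added with compounds to block cAMP breakdown; potency is the fitted concentration of half-maximal effect; nearly all actives have a fitted effect of over 60% in size; about a fifth of the inactives were tested at one dose only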
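Cells in DMEM/10% FBS with G418 were pretreated with compounds in DMSO plus […] (300 uM stock) for 30 min at 37C. cAMP was measured by HTRF (cAMP-d2 plus anti-cAMP antibody-K) after 30 min at room temperature.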
gsp antagonist: antagonists of gsp mutant (McCune-Albright syndrome) | gsp-mutant cells, cAMP HTRF, 30 min; control for the full effect not named in the record | Potency, µM (series often up to 76.9 µM), for inactives: at the top dose activity change, negative = inhibition, actives largely listed as inhibitors | hit rate 0.4% among 340,000 | AID 624288; active = falling curve of any shape with a large fitted effect; inconclusive = falling curve, mostly with a smaller effect; inactive = flat or rising curve; cell line not stated here;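 note: intracellular cAMP measured with PDE inhibitor Ro 20-1724 present during compound exposure; potency is the fitted concentration of half-maximal effect; % is set by controls: 0 for no effect and ±100 for the full control effect; nearly all actives have a fitted effect of over 65% in size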
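Measurement of cellular cAMP by homogeneous time-resolved fluorescence following a 30 min compound exposure at 37C. The PDE inhibitor […] was present throughout; the assay buffer was DPBS with 0.05% BSA and 0.005% Tween 20.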
D2 PAM: positive allosteric modulators of human D2 dopamine receptor; P14416; DiscoveRx D2 beta-arrestin cells, luminescence, 90 min; 100% = 57 uM dopamine signal; potentiation, % (no concentration beside the values); hit rate 0.23% among 360,000; AID 624464; active = potentiation of 50% or more; inconclusive = 30% to 50%; inactive = 30% or less;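 note: compound concentration not given in the record; tested on top of an EC20 dose of dopamine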
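PathHunter D2 cells, attached overnight at 37 deg C, received compound in DMSO plus dopamine at EC20 (50 nM final) for 90 min at 37 deg C. Beta-arrestin recruitment was read as luminescence after 1 h with detection reagent at ambient temperature.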
Numbers without * were called inactive; ? = inconclusive; / = no result given; [ ] = remark or other dose.

Compound | Menin MLL FP FL | Sfp PPTase inh | TRPV1 PAM | ClpP mod | gsp ag | gsp antagonist | D2 PAM
CCOC(=O)CN1CC23C=CC(O2)C(C(=O)NCc2ccc(F)cc2)C3C1=O (stereo not given) | -2.5 | 17% | 9 | 1.8% | 21% | 9% | -1
O=C(CSc1ccc(-c2ccccn2)nn1)c1ccc(F)cc1 | -2.4 | -3% | -15 | / | -9%[15.4 µM] | -3% | -1
CCOc1cc2[nH]c(=O)n(CCCCC(=O)N3CCCCCC3)c(=O)c2cc1OCC | 3.0 | 14% | -1 | 13µM* | ? | -3% | -5
CCCCC(=O)Nc1cc(N(C)C)nc2ccccc12 | 5.9 | 6% | -19 | 8.9µM* | 13% | 2% | -8
COc1cc(/C=C(/C#N)C(=O)NCCc2c[nH]c3ccccc23)ccc1OCc1ccccc1F | 6.7 | 8% | 27 | -3.4% | -16% | -5% | -2
O=C(CNC1=NCCC1)c1ccc(Cl)cc1 | 6.2 | -14% | -17 | -17% | 2% | 6% | -33
C=CCOc1ccc(/C=C2/C(=O)ON=C2C)cc1OC | 0.6 | 45µM* | 9 | / | 9% | 10% | 11
CN(c1ccccc1)S(=O)(=O)c1ccc2c(c1)oc(=O)n2C | 0.7 | 14% | 3 | / | -51%[inhibitor] | 6% | 0
COc1ccc(C2NC(=O)c3ccccc3O2)cc1OC (stereo not given) | 0.9 | 17% | 8 | ? | -17% | 10% | -14
Cc1cccc(OCc2nnc(SCC(=O)Nc3cccc(C(=O)N4CCOCC4)c3)o2)c1C | 1.5 | -6% | 3 | -0.1% | -5%[15.4 µM] | 3% | -7
Nc1cccc(Oc2ccc3c(c2)C(=O)N(CCO)C3=O)c1 | / | / | / | / | 10% | 4% | -2
Cc1cc(OCCCC(=O)Nc2nnc(C3CC3)s2)ccc1Cl | / | / | 3 | 2.1% | -32%[inhibitor] | 1% | 0

One compound at a time, from the list above. Values in the order: Menin MLL FP FL, Sfp PPTase inh, TRPV1 PAM, ClpP mod, gsp ag, gsp antagonist, D2 PAM
CCOC(=O)CN1CC23C=CC(O2)C(C(=O)NCc2ccc(F)cc2)C3C1=O (stereo not given) is entered as -2.5, 17%, 9, 1.8%, 21%, 9%, -1
Cc1cc(OCCCC(=O)Nc2nnc(C3CC3)s2)ccc1Cl is entered as /, /, 3, 2.1%, -32%[inhibitor], 1%, 0
Nc1cccc(Oc2ccc3c(c2)C(=O)N(CCO)C3=O)c1 is entered as /, /, /, /, 10%, 4%, -2

Continued.
Compound | Menin MLL FP FL | Sfp PPTase inh | TRPV1 PAM | ClpP mod | gsp ag | gsp antagonist | D2 PAM
O=C(NCc1ccccc1)/C(=C\c1cccc([N+](=O)[O-])c1)NC(=O)c1ccco1 | / | / | / | 0.2% | -71%[inhibitor] | / | -7
COc1ccc(/C(C)=N/Nc2nc(C)cc(-c3ccccc3)n2)cc1 | / | / | / | 0.3% | 18%[15.4 µM] | -12% | 4
COc1ccc2oc(=O)c(-c3csc(Nc4ccc(O)cc4)n3)cc2c1 | -1.0 | 25µM* | 7 | -1.3% | 0% | 25µM* | -27
CCCCn1c(SCC(=O)Nc2ccccc2C(F)(F)F)nc2ccsc2c1=O | 0.4 | -15% | -13 | -0.1% | 11% | 8% | 2
CC(C)(C)c1ccc(S(=O)(=O)Nc2ccc(C(=O)N3CCCC3)cc2)cc1 | / | 1% | 3 | -1.2% | 2% | -17% | -6
CN(Cc1ccc(F)cc1)C(=O)c1cccc(OCc2ccccc2)c1 | 1.3 | 8% | -13 | -0.6% | -4%[15.4 µM] | -9% | 1
Cc1ccc(S(=O)(=O)N2CCC(=O)N(C(COCc3ccccc3)Cc3ccccc3)CC2)cc1 (stereo not given) | 5.2 | -6% | -11 | -3.0% | ? | ? | -15
Cc1cc(C(=O)NN=C2CCCCC2)c2ccccc2n1 | 4.8 | 16% | 1 | -0.3% | 1%[15.4 µM] | 31% | -4
COC(=O)c1sc(NC(=O)c2cc3c(s2)CCCC3)nc1C | 3.4 | 9% | 6 | ? | -1% | 2% | -22
Cn1cc(/C=N/NC(=O)c2cccc([N+](=O)[O-])c2)c2ccccc21 | 8.4 | 9% | 9 | -4.4% | -52%[inhibitor] | -7% | 3
O=C(c1c(F)cccc1F)N1CCCC(c2nc(-c3ccc(F)cc3)no2)C1 (stereo not given) | 0.8 | 1% | 9 | 0.2% | 17% | -13% | -4
COc1ccccc1C(CNC(=O)CN(C)S(=O)(=O)c1ccc(C)cc1)N1CCCC1 (stereo not given) | / | / | -5 | 1.1% | 6% | 2% | -13
Oc1ccc(-c2c(C3=CCCCC3)sc3ccccc23)cc1 | 1.8 | 27% | 16 | 0.0% | / | -10% | -24
Cn1ccc(C(=O)OCC(=O)Nc2cccc3ccccc23)n1 | -1.6 | 20% | 5 | / | 7%[15.4 µM] | 3% | 4
CSc1ncccc1C(=O)OCC(=O)C(C)(C)C | -2.6 | 15% | 3 | 1.7% | 16% | 0% | -1
Cc1cc(C)nc(SCC(=O)Nc2ncc(Cc3cccc(Cl)c3Cl)s2)n1 | 3.1 | -14% | 29 | -0.4% | 4% | -3% | 3
Cc1cc(C)c(C)c(S(=O)(=O)NCCN2CCOCC2)c1C | -3.2 | 10% | 2 | / | ? | -3% | -9
CCCCn1c(N)c(N(CC)C(=O)c2cccc(S(=O)(=O)N3CCN(C)CC3)c2)c(=O)[nH]c1=O | / | / | 14 | -14% | -12% | 8% | -2
O=C1CCC(=O)N1CN(C(=O)c1ccco1)c1ccc(Cl)c(Cl)c1 | -0.1 | -10% | 8 | 0.3% | 0% | -7% | -5
O=C(Nc1cccnc1)c1ccc(S(=O)(=O)c2ccccc2)cc1 | 1.5 | 26% | -20 | / | -6%[15.4 µM] | 13% | -3
O=C(COC(=O)/C=C/c1cccc(Cl)c1)Nc1ccc(N2CCOCC2)cc1 | / | / | / | / | 5% | -2% | -3
COc1ccc(NC(=O)CSc2nnc(-c3cccs3)n2N)c(OC)c1 | / | / | -2 | -3.6% | 15% | 2% | -3
Cc1ccc(C(=O)Nc2sc(C(=O)N(C)C)c(C)c2C#N)cc1 | -2.9 | 1% | -2 | 0.1% | -1%[15.4 µM] | 9% | -2
CCn1cnnc1SCC(=O)NCC1COc2ccccc2O1 (stereo not given) | / | / | -6 | 0.0% | -9% | -1% | 0

Part of the list above, showing only gsp antagonist, D2 PAM and TRPV1 PAM:
canonical_smiles | gsp antagonist | D2 PAM | TRPV1 PAM
O=C(COC(=O)/C=C/c1cccc(Cl)c1)Nc1ccc(N2CCOCC2)cc1 | -2% | -3 | /
COc1ccc(NC(=O)CSc2nnc(-c3cccs3)n2N)c(OC)c1 | 2% | -3 | -2
Cc1ccc(C(=O)Nc2sc(C(=O)N(C)C)c(C)c2C#N)cc1 | 9% | -2 | -2
CCn1cnnc1SCC(=O)NCC1COc2ccccc2O1 (stereo not given) | -1% | 0 | -6

Next entries
Short keys: A = Menin MLL FP FL; B = Sfp PPTase inh; C = TRPV1 PAM; D = ClpP mod; E = gsp ag; F = gsp antagonist; G = D2 PAM
CCOc1cc(/C=C2\SC(=S)N(Nc3ccccc3)C2=O)ccc1O
  A: ?; B: ?; C: 16; D: -1.9%; E: 15%; F: -10%; G: -27
N#CCCn1ncn(-c2ccccc2)c1=S
  A: 0.0; B: 24%; C: -2; D: -0.6%; E: -30%[inhibitor]; F: 7%; G: 2
COc1ccc(-c2cc(C(F)(F)F)nc(SCCC(=O)Nc3cc(C)on3)n2)cc1
  A: 1.9; B: 9%; C: -19; D: 35µM*; E: -36%; F: 8%; G: 1
CCc1sc(C(=O)N2CCN(c3ncccn3)CC2)cc1Br
  A: /; B: 5%; C: -5; D: -6.0%; E: 5%; F: 2%; G: 1
CCc1nnc(NC(=O)c2ccc(S(C)(=O)=O)cc2)s1
  A: 5.1; B: -6%; C: -10; D: 0.6%; E: 11%; F: 11%; G: 0
CC(C)(C)OC(=O)NCCCCCNC(=O)c1[nH]cnc1C(=O)Nc1ccc(Cl)cc1
  A: /; B: /; C: 0; D: -11%; E: -60%[inhibitor]; F: -20%; G: -2
Cn1c(=O)c(C#N)c(-c2ccc(F)cc2)c2cc(C(=O)c3cc(Cl)cc(Cl)c3O)cnc21
  A: 4.1; B: 45µM*; C: 12; D: -4.7%; E: -2%; F: -22%; G: -14
O=C(CN1CCCN(Cc2ccc(F)cc2Cl)C1=O)NCc1ccccc1
  A: 4.2; B: 9%; C: -9; D: 1.0%; E: 28%; F: -17%; G: 8
CCOC(=O)c1ccc(N2CN(CCc3ccccc3)CNC2=S)cc1
  A: 0.0; B: -4%; C: 0; D: -1.1%; E: ?; F: 11%; G: -9
Cc1[nH]n(C(N)=S)c(=O)c1N=Nc1cccc(C(F)(F)F)c1
  A: 0.8; B: -4%; C: -6; D: -3.6%; E: 14%[15.4 µM]; F: 3%; G: -6
O=C(c1ccc([N+](=O)[O-])s1)N1CCc2ccccc2C1
  A: -1.1; B: 9%; C: -1; D: /; E: 12%[15.4 µM]; F: /; G: 9
